Screening data deposited in PubChem BioAssay by National Center for Advancing Translational Sciences (NCATS).
HPGD inh = HPGD (human) dehydrogenase inhibition; P15428; purified HPGD, NADH fluorescence kinetic, PGE2 substrate; Potency, µM, for the others: at the top dose activity change, negative = inhibition, actives largely listed as inhibitors; 150,000 tested, 4.3% active; active = well fitted inhibition curve with a large enough effect (not every such curve was filed as active); inconclusive = small, poorly fitted or top-dose-only effect, or another doubt; inactive = no such curve, though single readings can be large or run the other way;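 further: top concentration of the series not given in the record; plate controls included wells without enzyme; inactives centre near -10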
Target sequence (P15428 whole entry, looked up): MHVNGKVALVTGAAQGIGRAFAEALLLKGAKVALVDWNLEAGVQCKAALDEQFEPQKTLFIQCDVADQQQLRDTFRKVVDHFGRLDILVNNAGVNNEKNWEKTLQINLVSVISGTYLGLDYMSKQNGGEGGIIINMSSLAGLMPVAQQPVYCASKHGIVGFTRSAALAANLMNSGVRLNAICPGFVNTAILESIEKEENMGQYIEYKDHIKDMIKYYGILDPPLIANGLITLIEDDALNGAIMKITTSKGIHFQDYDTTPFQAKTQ
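NADH formation kinetics: reaction with 30 uM PGE2 and 1 mM NAD+ (final), 20 nM enzyme, Tris-HCl pH 8 with Tween 20, after 15 min compound preincubation at room temperature. Fluorescence change, last versus first of five reads.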
An asterisk follows results filed as active; ? = inconclusive; & = joins results of further samples. On the % scale 0 is the no-effect control and ±100 the full control effect; potency means the concentration at half of the fitted maximal effect. A portion of the library; the hit share may differ from the screen's.

SMILES	HPGD inh
COc1ccccc1NC(=S)NCCSc1ccc(C)cc1	-5%
Cc1ccc(C(=O)c2ccc([N+](=O)[O-])cc2)cc1	-12%
CCC(C)NC(=O)C1c2cc(OC)c(OC)cc2C(=O)N(C)C1c1cccs1 (configuration not stated)	-10%
Cc1ccc(N=Nc2c(N)[nH]n3c(=O)c4c(nc23)CCCC4)cc1	-5%
O=C(CSCc1ccc(Cl)cc1)N/N=C/c1ccc(OCC(=O)Nc2ccccc2)cc1	-15%
Cn1c2c(c(=O)n(C)c1=O)C(C(F)(F)F)(C(F)(F)F)N=C(C1CCCCC1)N2	-1%
CN(c1ccccc1)S(=O)(=O)c1ccc(NC(=O)C2CCCCC2C(=O)O)cc1 (configuration not stated)	0%
COc1ccc(OC)c(Nc2ncnc3c2cnn3-c2cccc(C)c2)c1	-20%
CC(=O)N(Cc1cccs1)C1CCOC(C)(C)C1 (configuration not stated)	-7%
COc1ccccc1N1CCN(C(=O)Cn2nc(C(F)(F)F)c3c2CCC3)CC1	2%
COc1ccc(-c2nc3c4ccccc4[nH]c(=O)n3n2)cc1	-29%
Cc1ccc(C(=O)Nc2cc(C)c(OCC(=O)N3CCOCC3)c(C)c2)cc1	-11%
CC(C)c1ccc(Nc2cnn(C34CC5CC(CC(CC(=O)O)(C5)C3)C4)c(=O)c2Cl)cc1	-8%
COc1ccc(NC(=O)N2CCC(n3nnc4cc(C)ccc43)CC2)cc1	-6%
CCCCc1ccc(NC(=O)CN2NS(=O)(=O)c3ccccc3C2=O)cc1	-7%
CN(C)C(=O)NC(Nc1ccc(Cl)cc1Cl)C(Cl)(Cl)Cl (configuration not stated)	-3%
Nc1nc(SCc2ccc(Cl)cc2)ns1	-8%
Clc1ccccc1CN(Cc1ccccc1)c1ncnc2nc[nH]c12	-5%
COc1ccc2[nH]c(C(=O)O)c(NS(=O)(=O)c3ccc(Cl)s3)c2c1	-10%
Cc1[nH]c2ccc(F)cc2c(=O)c1SC(F)(F)C(F)C(F)(F)F (configuration not stated)	-9%
CC(C)OC(=O)C1C2C=CC3(CN(CC4CCCO4)C(=O)C13)O2 (configuration not stated)	-2%
COc1ccc(S(=O)(=O)Nc2ccccc2C(=O)NCc2ccco2)cc1	?
O=c1cc(Nc2ccc3c(c2)OCO3)[nH]c(=O)n1-c1ccc(Br)cc1	-5%
OCC(C#CCN1CCCCC1)NCc1ccccc1 (configuration not stated)	3%
COC(=O)c1ccc(NC2(C#N)C(=O)Nc3ccccc32)cc1 (configuration not stated)	-4%
NC(=O)c1c(NC(=O)CSc2nnc(-c3ccco3)n2N)sc2c1CCCC2	14µM*
COc1ccc(-n2c3c(cc(C(=O)NC4CCSC4=O)c2=O)C(=O)CC(C)(C)C3)cc1 (configuration not stated)	-12%
O=C(C1CCN(S(=O)(=O)c2cccc3cccnc23)CC1)N1CCN(C2CCCCC2)CC1	1%
CCC(=O)N[C@@H]1CC(C(C)(C)NC(=O)CC)CC=C1C (some centres not stated)	-5%
CC1(C)CC(O)(CCNCc2ccc3c(c2)OCO3)CCO1 (configuration not stated)	-8%
COc1cc(OC)cc(C(=O)N2CCC(N3CCCCCC3)CC2)c1	0%
CCOc1ccc(C(=O)NC2CCN(C(=O)NCc3ccccc3)CC2)cc1	-9%
CCCC1CCC(c2ccc(C(=O)NN)cc2)CC1 (configuration not stated)	-30%
Cn1nnc(NC(=O)c2ccccc2)n1	2%
Cc1onc(-c2ccccc2)c1C(=O)Nc1ccc(S(=O)(=O)N2CCCCC2)cc1	-1%
Cc1noc(C)c1C(=O)N1CCC[C@@]2(CCN(C(c3ccccc3)c3ccccc3)C2)C1	-6%
COC1(OC)N=C(N)C2(C#N)C(c3cccc(Oc4ccccc4)c3)C12C#N (configuration not stated)	-17%
CCN(CC)C(=O)C(=O)N/N=C/c1ccc(C(=O)O)cc1	-6%
O=C(COc1ccc(Cl)cc1)NCCSc1ccccc1	-9%
CCCn1c(-c2cccs2)nc2nc3ccccc3nc21	?
O=C(CN(c1ccccc1F)S(=O)(=O)c1ccccc1)NC1CCCCCC1	-2%
CCOC(=O)Cn1nnnc1C(C(C)C)N(Cc1cccs1)Cc1cc2cc(C)ccc2[nH]c1=O (configuration not stated)	?
CCOC(=O)Nc1ccc2c(c1)N(C(=O)C(C)N1CCCC1)c1ccccc1CC2 (configuration not stated)	-11%
COC(=O)c1ccc(NC(=O)CSc2n[nH]c(-c3ccncc3)n2)cc1	?
CN(C)c1ccc(/C=N/n2ncc3ccccc32)cc1	?
Cn1c(NC(=O)c2ccc3c(c2)OCO3)cc(=O)n(C)c1=O	-14%
CCCCNS(=O)(=O)c1ccc2nc(SCC(=O)Nc3sccc3C#N)[nH]c2c1	?
CC(Oc1ccccc1)C(=O)Nc1nc2c(s1)C(=O)CC(C)(C)C2 (configuration not stated)	-24%
COc1ccc(N(C(=O)C(C)C)S(=O)(=O)c2ccc3c(c2)n(C)c(=O)n3C)cc1	-7%
COc1cccc(NC(=O)CSCC(=O)O)c1	-3%

Following part.
SMILES	HPGD inh
CCOc1ccc(CN2CCN(C(=O)c3cccc(F)c3)CC2)cc1	-3%
CCS(=O)(=O)N1CCN(c2ccc(Cl)cc2[N+](=O)[O-])CC1	-16%
Cc1ccc(OC(=O)c2cc(=O)c3ccccc3o2)cc1	-9%
O=C(Cn1nc(-c2ccc(Cl)cc2)c2ccccc2c1=O)Nc1cccnc1	-7%
COc1ccc(NC(=O)c2cccnc2NCCc2ccccc2)cc1	-14%
CCNC(=S)NNC(=O)c1ccccc1Cl	-5%
COC(=O)c1ccccc1S(=O)(=O)C(C)(C)C	-18%
Cc1ccc(Cc2cnc(NC(=O)C3CCCO3)s2)cc1 (configuration not stated)	-5%
Cc1cccn2cc(CCNC(=O)c3ccc(Br)o3)nc12	-11%
COc1ccc(/C=C/C(=O)c2c(C)nc3ccccn23)cc1	-18%
O=C1c2ccccc2C(O)(c2ncc[nH]2)N1CCc1ccccc1 (configuration not stated)	-10%
COc1cc(NC(=O)c2nnn(Cc3ccc(SC)cc3)c2N)cc(OC)c1	-14%
O=C(CSc1nc(Nc2ccccc2)nc(N2CCOCC2)n1)N1CCc2ccccc21	-8%
Cc1cc(C)n(C(=O)CNC(=O)C2COc3ccccc3O2)n1 (configuration not stated)	-5%
O=C(CSc1nnc(-c2cccnc2)n1Cc1ccco1)c1ccc(Br)cc1	28µM*
CC(C(=O)Nc1ccc2nccnc2c1)N1C(=O)C2C3C=CC(C3)C2C1=O (configuration not stated)	?
CCN(CC)S(=O)(=O)c1cccc(-c2nnc(SCc3ncc(-c4ccccc4)o3)n2C)c1	-7%
COc1ccccc1NC(=O)CN1C(=O)NC(CC(C)C)C1=O (configuration not stated)	-3%
COC(=O)N1[C@H](C)C=C[C@]1(Cc1ccccc1)C(=O)O	-10%&-17%
CCc1ccc(-n2cc(-c3ccc([N+](=O)[O-])cc3)[nH]c2=S)cc1	-24%
CC(=O)Nc1ccc(NC(=O)COC(=O)Cc2c[nH]c3ccccc23)cc1	-7%
COc1ccc(S(=O)(=O)Nc2cccc(Cl)c2)cc1OC	-19%
CCOc1ccc2[nH]c(=O)c(CN(CCO)C(=O)c3ccc(Br)cc3)cc2c1	?
Cc1nc(NC(C)C(=O)O)c2nc(C)oc2n1 (configuration not stated)	-16%
CCn1c(=O)c([N+](=O)[O-])c(NCC(O)c2ccccc2)c2ccccc21 (configuration not stated)	16µM*
Cc1ccnn2cc3c(=O)n(C)c(=O)n(C)c3c12	-16%
COCCN1C=C(C(=O)OC)C(c2cc(Br)c(OC)c(OC)c2)C(C(=O)OC)=C1	?
O=C(CCCCCN1C(=O)c2cccc3cccc(c23)C1=O)NO	-26%
O=C(COC(=O)c1ccco1)Nc1cccc(Br)c1	-5%
O=c1c(O)c(-c2cccs2)oc2ccc(Cl)cc12	-12%
Cc1c(Cl)c([N+](=O)[O-])nn1CC(=O)NC12CC3CC(CC(C3)C1)C2	-5%
O=C(C/C=N/OCc1ccc(F)cc1Cl)c1cnc(-c2ccccc2)s1	-10%
Cc1ccc(CN2CCN(C(=O)CCN3C(=O)c4ccccc4C3=O)CC2)cc1	-3%
C=CCNc1ncnc2c1[nH]c1ccc(Cl)cc12	?
O=C(Nn1c(=O)[nH]c2ccsc2c1=O)c1ccccc1	?
Cc1cc(C)c(NC(=O)c2sc3nc4c(cc3c2N)C(=O)CC(C)(C)C4)c(C)c1	-12%
COCCN1C(=O)C(CC(=O)Nc2ccc(C(=O)O)cc2)SC1=Nc1ccccc1 (configuration not stated)	-22%
Cc1ccc2oc(-c3ccc(NC(=O)c4cccnc4)cc3)nc2c1	-26%
CCC(c1nnnn1Cc1ccccc1)N(Cc1ccco1)Cc1cc2cc(OC)ccc2[nH]c1=O (configuration not stated)	-23%
O=C(NC(NC(=S)Nc1ccc(Cl)cc1Cl)C(Cl)(Cl)Cl)c1cccc([N+](=O)[O-])c1 (configuration not stated)	-14%

Arranged by molar mass (rising): some entries from above.
SMILES	HPGD inh
Cc1ccc2oc(-c3ccc(NC(=O)c4cccnc4)cc3)nc2c1	-26%
Cc1c(Cl)c([N+](=O)[O-])nn1CC(=O)NC12CC3CC(CC(C3)C1)C2	-5%
O=C(C/C=N/OCc1ccc(F)cc1Cl)c1cnc(-c2ccccc2)s1	-10%
Cc1ccc(CN2CCN(C(=O)CCN3C(=O)c4ccccc4C3=O)CC2)cc1	-3%
Cc1cc(C)c(NC(=O)c2sc3nc4c(cc3c2N)C(=O)CC(C)(C)C4)c(C)c1	-12%
COCCN1C(=O)C(CC(=O)Nc2ccc(C(=O)O)cc2)SC1=Nc1ccccc1 (configuration not stated)	-22%
CCC(c1nnnn1Cc1ccccc1)N(Cc1ccco1)Cc1cc2cc(OC)ccc2[nH]c1=O (configuration not stated)	-23%

The results go on.
SMILES	HPGD inh
O=C(O)C1CCCCC1C(=O)Nc1cccc2ccccc12 (configuration not stated)	-16%
OC(Cn1cncn1)c1ccc(Cl)cc1 (configuration not stated)	-3%
Nc1cc(=O)nc(SCC(=O)N(C2CCCCC2)C2CCCCC2)n1-c1ccccc1	-11%
O=C(Nc1ncc(Cc2cccc(Cl)c2)s1)C1CCCO1 (configuration not stated)	-20%
CCN(CC)S(=O)(=O)c1ccc(Cl)c(C(=O)Nc2nncs2)c1	-10%
CC(C)[C@H](NC(=O)c1ccc(C(C)(C)C)cc1)C(=O)Nc1nnc(C2CC2)s1	-4%
COc1cc(/C=N/NC(=O)CC23CC4CC(CC(C4)C2)C3)cc(Br)c1OCC(=O)N(C)C	-12%
Cc1nc2c3cc(F)ccc3n(Cc3ccccc3)c2s1	-3%
CCOC(=O)c1ccc(NCc2ccc3c(c2)OCO3)cc1	-10%
Cc1cccc(NC(=O)Cn2nc(C(F)(F)F)cc2C2CC2)c1	-3%
Cc1ccc2ncccc2c1[N+](=O)[O-]	-16%
O=C(CN1CCN(Cc2ccccc2F)C1=O)NCc1ccco1	-11%
N[C@@H](Cc1nn[nH]n1)C(=O)O	-1%
O=C(c1ccco1)N1CCCN(C(=O)c2ccco2)CC1	-5%
O=C(O)CSc1nnc(Cn2cnc3ccccc32)n1CCc1ccccc1	-8%
O=S(=O)(c1ccc(Cl)cc1)N1CCCC1c1nc2ccccc2s1 (configuration not stated)	-2%
O=C(c1ccco1)N1CCN(CC(O)Cn2c3ccccc3c3ccccc32)CC1 (configuration not stated)	-26%
Cc1cc(C)cc(OCCCCCNCCO)c1	-9%
COc1ccccc1-c1nnc(SCC(=O)c2ccc(C3CCCCC3)cc2)n1Cc1ccco1	-14%
COc1ccc(N(C)C(=O)c2cnc(N3CCN(c4ncccn4)CC3)c3ccccc23)cc1	28µM*

At a glance, part of the list above.
SMILES	HPGD inh
O=C(O)CSc1nnc(Cn2cnc3ccccc32)n1CCc1ccccc1	-8%
O=S(=O)(c1ccc(Cl)cc1)N1CCCC1c1nc2ccccc2s1 (configuration not stated)	-2%
O=C(c1ccco1)N1CCN(CC(O)Cn2c3ccccc3c3ccccc32)CC1 (configuration not stated)	-26%
Cc1cc(C)cc(OCCCCCNCCO)c1	-9%
COc1ccccc1-c1nnc(SCC(=O)c2ccc(C3CCCCC3)cc2)n1Cc1ccco1	-14%
COc1ccc(N(C)C(=O)c2cnc(N3CCN(c4ncccn4)CC3)c3ccccc23)cc1	28µM*

Continuation:
SMILES	HPGD inh
COc1ccc(C(=O)C(c2ccccc2)N2CCOCC2)cc1 (configuration not stated)	-13%
COC(=O)c1ccc(-c2ccc(F)cc2)nc1C	-10%
N[C@@H]1C(O)OC(CO)C(O)C1O (some centres not stated)	-3%
CCN(CC)C(=O)Nc1cnc2ccccc2c1	-8%
COc1ccc(NC(=S)N/N=C2\CC(C)(C)Oc3ccc(O)cc32)cc1	-15%
CN(CC(=O)NCc1ccc(Cl)cc1)S(=O)(=O)c1cccc2nsnc12	-7%
S=C(NCc1ccccn1)Nc1ccc(Cl)c(Cl)c1	16µM*
Cn1c(=O)c2c(ncn2CC(=O)N/N=C/c2ccco2)n(C)c1=O	-5%
C[C@H]1CS(=O)(=O)CCN1/N=C\c1ccc([N+](=O)[O-])o1	-6%
CNc1ccc(Br)cc(C(=O)/C=C/c2ccc(OC)cc2OC)c1=O	14µM*
Cc1ccc(NC(=O)C2=C(O)c3ccccc3N(C)S2(=O)=O)cc1	-14%
COC(=O)CSC1=C(C#N)C(c2ccc(F)cc2)CC(=O)N1 (configuration not stated)	-7%
